Source: PubChem (Broad Institute)
Ecoli rRNA inh: inhibits bacterial ribosomal RNA function over humanized ribosomes. E. coli WT GFP vs humanized-ribosome RFP mutants, fluorescence, 24 h; active compounds read low; DMSO median 0, no signal -100. GFP signal change (wild-type ribosome), % (no concentration beside the values). 1.6% of 350,000 active. AID 720706;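 active means significant combined selectivity score with lowered wild-type GFP, culture density cut under 30%, mutant RFP and density less affected; inactive means any of these conditions unmet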; further: one replicate is shown; some compounds called inactive have numbers as strong as hits
MLL AF4-AF9 inh: blocks AF4 peptide binding to human AF9. 0.47% of 350,000 active. AID 651704. P42568. AlphaScreen, biotin-AF4 peptide binding to FLAG-AF9. inhibition, % at 10 µM;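 active means every replicate reaching a set inhibition limit, whatever the replicate mean, cut at about 25% in these data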;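 further: 0% = plate neutral control median and 100% = total signal loss; the record names both 10 and 1 µM as test concentration; the first replicate is given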
Target sequence (P42568 whole entry, looked up): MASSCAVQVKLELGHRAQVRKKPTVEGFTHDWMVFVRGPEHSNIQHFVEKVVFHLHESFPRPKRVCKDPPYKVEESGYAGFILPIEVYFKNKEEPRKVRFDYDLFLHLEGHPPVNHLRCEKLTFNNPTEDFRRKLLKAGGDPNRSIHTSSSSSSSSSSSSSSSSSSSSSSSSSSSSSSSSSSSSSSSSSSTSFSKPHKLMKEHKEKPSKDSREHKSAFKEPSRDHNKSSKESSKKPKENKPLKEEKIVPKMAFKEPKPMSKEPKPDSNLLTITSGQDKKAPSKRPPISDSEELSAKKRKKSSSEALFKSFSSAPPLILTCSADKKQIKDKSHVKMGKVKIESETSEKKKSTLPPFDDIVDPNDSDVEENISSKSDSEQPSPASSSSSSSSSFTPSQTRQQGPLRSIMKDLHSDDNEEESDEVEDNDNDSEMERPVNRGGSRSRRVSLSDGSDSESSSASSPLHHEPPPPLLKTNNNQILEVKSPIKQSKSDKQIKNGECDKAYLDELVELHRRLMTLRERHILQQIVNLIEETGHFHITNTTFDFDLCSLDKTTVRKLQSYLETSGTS
Ecoli rRNA inh OD600: also measured in Ecoli rRNA inh; calls as there; OD600 change, %; measured here: OD600 growth;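 optical density of the mix in the first replicate; 0 = DMSO median and -100 = no signal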
Ecoli rRNA inh RFP: recorded beside Ecoli rRNA inh, whose call it bears; RFP signal change, %; measured here: RFP humanized mutant strains;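 first replicate; 0 = DMSO median and -100 = no signal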
* hit, by the source's call; & = joins results of further samples.

SMILES	Ecoli rRNA inh	Ecoli rRNA inh OD600	Ecoli rRNA inh RFP	MLL AF4-AF9 inh
Cc1ccc(-c2ccc([C@H]3[C@H](CO)N4C(=O)CN(S(=O)(=O)c5cccc(F)c5)C[C@@H]34)cc2)cc1	-2	-1	1.0	1.0
Cc1cccc(-c2ccc(C3[C@H]4CNC[C@@H]3N4CC3CCOCC3)cc2)c1 (some centres undefined)	2&4	1&16	-0.8&2.5	2.4&2.5
CC(C)NC(=O)Nc1ccc2c(c1)CC(=O)N([C@@H](C)CO)C[C@H](C)[C@H](CN(C)S(=O)(=O)c1ccccc1)O2	1	-5	0.2	0.7
CO[C@H]1CN(C)C(=O)c2cc(NC(C)=O)ccc2OC[C@H](C)N(C(=O)CN(C)C)C[C@H]1C	1	5	-2.6	-3.3
O=C1CNC[C@H]2[C@H](c3ccc(C4=CCCCC4)cc3)[C@H](CO)N12	2	11	0.0	-1.6
O=C(C[C@H]1CC[C@H](NS(=O)(=O)c2ccc(F)cc2)[C@H](CO)O1)NCc1ccccc1F	-2	3	-1.1	-3.4
O=C1CN(S(=O)(=O)Cc2ccccc2)C[C@@H]2[C@H](c3ccc(C#Cc4cccc(F)c4)cc3)[C@@H](CO)N12	1	-16	14	-2.4
CC(=O)N1CC(=O)N2[C@H](CO)[C@@H](c3ccc(-c4ccncc4)cc3)[C@H]2C1	1	-4	2.3	-2.1
CC(=O)C1=C(C)NC(=S)NC1c1ccccc1 (centres undefined)	15	7	1.7	-9.0
CCCNC(=O)N1C[C@@H](C)[C@H](OC)CN(C)C(=O)c2ccc(NC(C)=O)cc2OC[C@@H]1C	1	-1	-0.8	-6.3
C[C@@H]1CN([C@H](C)CO)S(=O)(=O)c2ccc(C3=CCCCC3)cc2O[C@H]1CN(C)S(=O)(=O)c1ccc(F)cc1	1	-3	0.1	1.2
Cc1ccc(CN2CC(=O)N3[C@H](CO)[C@H](c4ccc(Br)cc4)[C@@H]3C2)cc1	3	-17	3.6	1.3

Reprinted from above for reference:
SMILES	Ecoli rRNA inh	Ecoli rRNA inh OD600	Ecoli rRNA inh RFP	MLL AF4-AF9 inh
Cc1ccc(-c2ccc([C@H]3[C@H](CO)N4C(=O)CN(S(=O)(=O)c5cccc(F)c5)C[C@@H]34)cc2)cc1	-2	-1	1.0	1.0
Cc1cccc(-c2ccc(C3[C@H]4CNC[C@@H]3N4CC3CCOCC3)cc2)c1 (some centres undefined)	2&4	1&16	-0.8&2.5	2.4&2.5
CC(C)NC(=O)Nc1ccc2c(c1)CC(=O)N([C@@H](C)CO)C[C@H](C)[C@H](CN(C)S(=O)(=O)c1ccccc1)O2	1	-5	0.2	0.7
CO[C@H]1CN(C)C(=O)c2cc(NC(C)=O)ccc2OC[C@H](C)N(C(=O)CN(C)C)C[C@H]1C	1	5	-2.6	-3.3
O=C1CNC[C@H]2[C@H](c3ccc(C4=CCCCC4)cc3)[C@H](CO)N12	2	11	0.0	-1.6
O=C(C[C@H]1CC[C@H](NS(=O)(=O)c2ccc(F)cc2)[C@H](CO)O1)NCc1ccccc1F	-2	3	-1.1	-3.4
O=C1CN(S(=O)(=O)Cc2ccccc2)C[C@@H]2[C@H](c3ccc(C#Cc4cccc(F)c4)cc3)[C@@H](CO)N12	1	-16	14	-2.4
CC(=O)N1CC(=O)N2[C@H](CO)[C@@H](c3ccc(-c4ccncc4)cc3)[C@H]2C1	1	-4	2.3	-2.1
CC(=O)C1=C(C)NC(=S)NC1c1ccccc1 (centres undefined)	15	7	1.7	-9.0

Remaining list, next part
SMILES	Ecoli rRNA inh	Ecoli rRNA inh OD600	Ecoli rRNA inh RFP	MLL AF4-AF9 inh
COCCNC(=O)[C@H]1[C@H](CO)[C@H]2Cn3c(ccc(-c4ccccc4F)c3=O)[C@H]2N1C(=O)C1CCC1	0	0	-2.4	-4.1
O=C(c1cnccn1)N1CC(=O)N2[C@H](CO)[C@@H](c3ccc(C#CCC4CCCC4)cc3)[C@H]2C1	-14	-59	16	5.4
O=C(C[C@@H]1CC[C@H](NC(=O)Nc2ccccc2F)[C@H](CO)O1)NCc1ccc(-c2ccccc2)cc1	-61	-73	-26	4.2
Cc1ccccc1-c1ccc([C@H]2[C@@H](CO)N3C(=O)CN(C(=O)c4ccccc4)C[C@@H]23)cc1	-2	-24	-1.8	-0.3
COCC#Cc1cnc2c(c1)C(=O)N([C@H](C)CO)C[C@@H](C)[C@H](CN(C)Cc1ccccc1F)O2	1	8	-0.6	-0.6
CN(C)CC(=O)Nc1ccc2c(c1)[C@@H]1C[C@H](CC(=O)N3CCN(C)CC3)O[C@H](CO)[C@@H]1O2	4	6	0.0	-2.4
CO[C@H]1CN(C)C(=O)c2cc(NC(=O)C3CCCCC3)ccc2OC[C@H](C)N(C(=O)c2ccccc2)C[C@H]1C	-4	-5	-2.0	1.3
COc1cccc(-c2ccccc2[C@@H]2[C@@H](C#N)N(C(=O)Cc3ccccc3)[C@H]2CO)c1	-5	3	3.1	-0.9
O=C(C1CC1)N1CC(=O)N2[C@H](CO)[C@H](c3ccc(C4=CCCCC4)cc3)[C@@H]2C1	1	10	5.8	-1.5
O=C(c1cnccn1)N1CC(=O)N2[C@H](CO)[C@@H](c3ccc(-c4ccccc4)cc3)[C@H]2C1	-3	-8	1.3	0.5
Cc1noc(C)c1S(=O)(=O)Nc1ccc2c(c1)C(=O)N([C@H](C)CO)C[C@H](C)[C@@H](CN(C)C)OCCCC[C@H](C)O2	5	3	1.2	-3.1
COc1ccc(-c2ccc(C3[C@@H]4CN(C(=O)Nc5ccccc5F)C[C@H]3N4)cc2)cc1 (some centres undefined)	2	2	1.5	-0.5
COc1ccc(CN(C)C[C@@H]2Oc3ccc(NS(=O)(=O)c4cccs4)cc3CC(=O)N([C@@H](C)CO)C[C@H]2C)cc1	-2	-8	1.1	2.2
CO[C@@H]1CN(C)C(=O)c2cc(NC(=O)NC(C)C)ccc2OC[C@@H](C)N(C(=O)CN(C)C)C[C@@H]1C	2	9	-2.6	2.1
COc1cccc(C#Cc2ccc([C@@H]3[C@@H](CO)N4C(=O)CN(C(=O)C5CC5)C[C@H]34)cc2)c1	2	-10	13	3.3
C/C=C/c1ccc([C@H]2[C@@H](CO)N3C(=O)CN(Cc4ccccc4)C[C@H]23)cc1	3	-1	0.9	3.7
O=C(C1CC1)N1CC(=O)N2[C@H](C1)[C@H](c1ccc(C#CCc3ccccc3)cc1)[C@@H]2CO	-1	0	2.0	-0.3
C[C@@H]1CN([C@@H](C)CO)C(=O)c2cc(NS(C)(=O)=O)ccc2O[C@@H](C)CCCCO[C@H]1CN(C)C(=O)NC1CCCCC1	0	7	2.5	-12
COc1ccc(-c2ccc([C@@H]3[C@@H](CO)N4C(=O)CN(C(=O)c5ccccc5)C[C@H]34)cc2)cc1	6	-8	4.3	3.5
CO[C@H]1CN(C)C(=O)c2ccc(NC(=O)Cc3ccccc3)cc2OC[C@@H](C)N(C)C[C@H]1C	2	3	0.7	0.4
C[C@@H]1CN([C@H](C)CO)C(=O)CCCn2nncc2CO[C@@H]1CN(C)Cc1ccc2cccnc2c1	-4	-5	-0.1	-2.1
C[C@H]1CN([C@@H](C)CO)C(=O)c2cccc(NC(=O)c3nc4ccccc4s3)c2O[C@H]1CN(C)Cc1ccc(C(=O)Nc2ccccc2N)cc1	-6	-13	25	-3.0
CO[C@H]1CN(C)C(=O)c2ccc(NC(C)=O)cc2OC[C@@H](C)N(C(=O)Cc2cccnc2)C[C@@H]1C	2	4	1.6	-1.0
CC(C)CC#Cc1ccc([C@H]2[C@H]3CN(C(=O)CN4CCOCC4)CC(=O)N3[C@H]2CO)cc1	4	6	-4.0	-1.6
O=C(NC[C@@H]1[C@H](c2ccccc2)[C@H](CO)N1CC1CCCC1)C1CC1	1	-6	0.8	-1.2
O=C(C1CCOCC1)N1CC(=O)N2[C@H](C1)[C@@H](c1ccc(-c3cccnc3)cc1)[C@@H]2CO	-4	-9	-1.8	-2.5
C[C@@H]1CCCCO[C@H](CN(C)Cc2ccc3c(c2)OCO3)[C@@H](C)CN([C@H](C)CO)C(=O)c2cc(NS(=O)(=O)c3ccccc3)ccc2O1	5	-2	-3.3	-2.7
CCCN(C)C[C@@H]1Oc2cc(C#Cc3cccnc3)ccc2S(=O)(=O)N([C@H](C)CO)C[C@@H]1C	5	3	1.3	0.8
CS(=O)(=O)N1CC(=O)N2[C@H](CO)[C@@H](c3ccc(C#CC4CCCC4)cc3)[C@@H]2C1	-6	-44	11	3.4
C/C=C/c1ccc([C@H]2[C@@H](CO)N(C(C)=O)[C@H]2CN(C(=O)COC)C(C)C)cc1	2	7	-3.6	-1.1
CCCN1[C@H](C(=O)N(C)C)[C@@H](CO)[C@@H]2Cn3c(ccc(-c4ccccc4)c3=O)[C@@H]21	1	2	-0.4	-1.4
COc1cccc(NC(=O)N2CC(=O)N3[C@@H](CO)[C@H](c4ccc(Br)cc4)[C@@H]3C2)c1	-3	4	-2.0	-1.5
C[C@@H]1CCCCO[C@H](CN(C)C(=O)Nc2ccc(C(F)(F)F)cc2)[C@H](C)CN([C@H](C)CO)C(=O)c2cc(NS(=O)(=O)c3ccc(Cl)cc3)ccc2O1	2	3	-3.0	-5.4
Cc1ccccc1S(=O)(=O)N1CC(=O)N2[C@@H](CO)[C@@H](c3ccc(C#CCC4CCCC4)cc3)[C@@H]2C1	2	6	-5.5	-0.6
Cc1ccccc1S(=O)(=O)N1[C@@H]2CNC[C@H]1C2c1ccc(-c2ccccc2)cc1 (some centres undefined)	-56&-38	-80&-69	-11&-0.2	-5.7&-3.6
C[C@H]1CCCCO[C@H](CN(C)C(=O)Nc2cccc3ccccc23)[C@@H](C)CN([C@@H](C)CO)C(=O)c2cc(NS(=O)(=O)c3ccc(F)cc3)ccc2O1	0	7	2.2	4.0
O=C(Nc1cccc(F)c1)N1[C@@H]2CNC[C@H]1C2c1ccc(-c2cccnc2)cc1 (some centres undefined)	-2&-2	26&2	-1.5&1.1	0.5&2.1
O=C(c1ccccc1)N1CC(=O)N2[C@H](CO)[C@@H](c3ccc(C#Cc4ccccc4)cc3)[C@H]2C1	-44	-69	4.8	2.1
CNC(=O)C[C@@H]1CC[C@@H]2[C@H](COc3ccc(NC(=O)Nc4ccc(F)c(F)c4)cc3C(=O)N2C)O1	-3	-1	3.6	3.2
O=C(NC1CCCC1)N1CC(=O)N2[C@H](C1)[C@@H](c1ccc(/C=C/c3ccccc3)cc1)[C@@H]2CO	-7	-45	27	25*
CCCN(C)C[C@H]1Oc2cc(-c3cccc(C#N)c3)ccc2S(=O)(=O)N([C@H](C)CO)C[C@H]1C	1	5	0.1	0.1
O=C(Nc1ccccc1F)N1CC(=O)N2[C@H](CO)[C@H](c3ccc(C#Cc4ccccc4)cc3)[C@H]2C1	-18	-56	14	-7.5
Cc1ccccc1S(=O)(=O)N1CC(=O)N2[C@H](C1)[C@H](c1ccc(C#CCC(C)C)cc1)[C@@H]2CO	3	2	2.9	-2.9
CCCN1C[C@H](C)[C@H](OC)CN(C)C(=O)c2cc(NC(=O)c3ccno3)ccc2OC[C@@H]1C	2	3	0.5	0.5
O=C(C1CCC1)N1CC2(C1)[C@H](c1ccccc1)[C@@H](CO)N2C(=O)CC1CC1	0	9	-3.2	-2.3
O=C(O)c1ccccc1C(=O)OC1CC2CCC1C2 (centres undefined)	2	6	-0.9	-4.0
O=C(C1CC1)N1CC2(C1)[C@H](c1ccccc1)[C@H](CO)N2CC1CCCC1	-7	-8	-0.2	2.3
COc1ccc2c3c(n(C)c2c1)[C@H](CO)N(C(=O)C1CC1)CC31CN(Cc2ccccc2OC)C1	-2	-4	1.7	29*
Cc1noc(C)c1NC(=O)Nc1ccc2c(c1)C(=O)N([C@@H](C)CO)C[C@H](C)[C@@H](CN(C)Cc1ccccc1)OCCCC[C@H](C)O2	0	4	-2.3	-4.0
C[C@H](CO)N1C[C@H](C)[C@@H](CN(C)S(=O)(=O)c2ccccc2)OCCCC[C@H](C)Oc2ccc(N(C)C)cc2C1=O	-4	-7	1.7	3.5
COc1ccccc1NC(=O)N1CC(=O)N2[C@@H](CO)[C@H](c3ccc(C#Cc4ccc(F)cc4)cc3)[C@@H]2C1	3	-22	21	1.0
O=C(Nc1cc(F)ccc1F)N1CC(=O)N2[C@@H](CO)[C@H](c3ccc(-c4cccc(F)c4)cc3)[C@@H]2C1	-28	-62	5.2	-0.6
COCC#Cc1ccc([C@@H]2[C@H]3CN(C(=O)CN4CCOCC4)CC(=O)N3[C@H]2CO)cc1	5	0	-1.6	-3.6
CCc1cnc(N2[C@H](C#N)[C@H](c3ccccc3-c3ccccc3C)[C@H]2CO)s1	0	-40	-1.9	1.7
COc1cccc(-c2ccc3c(c2)[C@@H]2[C@@H](CCN2C(=O)C2CCCC2)[C@H](CO)N3)c1	-35	-61	8.9	32*
COc1ccccc1C#Cc1ccc([C@H]2[C@@H](C#N)N(C(=O)C3CCCCC3)[C@@H]2CO)cc1	2	2	1.1	0.7
CCCN1[C@@H]2Cn3c(ccc(-c4ccccc4OC)c3=O)[C@H]1[C@@H](C(=O)N1CCOCC1)[C@@H]2CO	2	2	-0.7	-2.2
COc1ccc(CN(C)C[C@@H]2Oc3ccc(NC(=O)Cc4ccccc4)cc3C(=O)N([C@H](C)CO)C[C@@H]2C)cc1	0	-3	-0.9	-2.0
O=C(Nc1ccc2c(c1)[C@@H]1C[C@@H](CC(=O)N3CCCCC3)O[C@@H](CO)[C@@H]1O2)Nc1ccccc1F	-8	-14	1.0	3.0

Some of the compounds tested, so the mix of outcomes need not match the whole.
